Screening data from PubChem.
Rango-impB inh = qHTS Assay for Inhibitors of Rango (Ran-regulated importin-beta cargo) - Importin beta complex formation; Importin subunit beta-1 (Homo sapiens), Q14974; Rango CFP/YFP FRET sensor + importin beta, 45 min; Potency, µM (highest dose often 92.2 µM), inactives show at the highest dose inhibition of complex formation; actives 0.031% (n = 340,000); active = rising FRET ratio curve, often small or poorly fitted; inconclusive = mostly compound fluorescence or quenching in the first reads; inactive = flat curves in all reads;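 note: potency is the fitted concentration of half-maximal effect; 0% = DMSO wells and 100% = buffer wells lacking importin beta; nearly all actives have a fitted effect of over 15% in size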
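FRET biosensor (snurportin 1 IBB flanked by EYFP and cerulean), 50 nM, with compound 5 min, then 0.125 microM importin beta in PBS, 1 mM DTT, 0.02% Tween-20, 0.1% BSA. CFP/YFP ratio read after 45 min at room temperature; pre-read flags interference.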
Rango release inh = qHTS Assay for Inhibitors of RanGTP induced Rango (Ran-regulated importin-beta cargo) - Importin beta complex dissociation; actives 0.071% (n = 340,000); Potency, µM (doses to about 46.1 µM), for the others: at the top dose activity change, negative = inhibition; Biochemical FRET Rango-importin beta, RanGTP-induced dissociation; AID 540253, 2011; Snurportin-1 (Homo sapiens) + GTP-binding nuclear protein Ran (Homo sapiens) + Importin …; active means falling FRET ratio curve, often poorly fitted, with flat reads before Ran was added; inconclusive means other falling curves, or compound fluorescence or quenching; inactive means flat or rising ratio curve;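 note: potency is the fitted concentration of half-maximal effect; % of control where 0% means no effect; nearly all actives have a fitted effect of over 45% in size; -100% = wells without RanGTP and RCC1; the record marks most hits as doubtful in a second field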
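Compounds preincubate 5 min with complex of recombinant Rango and importin beta in PBS with 1 mM DTT. Ran (0.6 uM) loaded with 2 mM GTP plus 0.2 uM RCC1 starts dissociation; FRET is recorded 45 min later.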
GLA inh pH 4.5 = qHTS Assay for Inhibitors of Human alpha-Galactosidase at pH 4.5. 230,000 tested, under 10 active. Alpha-galactosidase A (Homo sapiens), P06280. activity change, negative = inhibition, % at 105 µM. purified enzyme, 4-MU-alpha-Gal fluorescence, pH 4.5; inconclusive = small, poorly fitted or top-dose-only inhibition, or a rising curve; inactive = flat fitted curve, though single readings scatter; no compound was filed as active;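 note: 0% = full activity with enzyme and -100% = basal without enzyme; dose as in the result columns while the protocol names 77 µM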
Target sequence (P06280 whole entry, looked up): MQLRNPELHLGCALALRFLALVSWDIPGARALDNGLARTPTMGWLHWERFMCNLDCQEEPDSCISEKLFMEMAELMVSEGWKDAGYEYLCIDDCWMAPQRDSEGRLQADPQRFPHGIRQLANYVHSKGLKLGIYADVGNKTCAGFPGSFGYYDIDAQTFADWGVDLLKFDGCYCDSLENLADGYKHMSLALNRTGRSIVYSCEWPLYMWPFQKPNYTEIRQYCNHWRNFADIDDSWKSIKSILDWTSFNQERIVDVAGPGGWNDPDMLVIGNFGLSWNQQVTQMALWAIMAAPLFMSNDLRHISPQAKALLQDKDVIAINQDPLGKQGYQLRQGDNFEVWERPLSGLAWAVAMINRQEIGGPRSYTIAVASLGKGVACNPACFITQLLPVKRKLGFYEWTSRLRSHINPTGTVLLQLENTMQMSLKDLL
miR-21 reporter = qHTS Assay for Modulators of miRNAs and/orActivators of miR-21 | Potency, µM (doses to about 38.3 µM), inactives show at the highest dose reporter change, positive = more light | 340,000 tested, under 10 active | HeLa miR-21 FLuc reporter, luciferase, 48 h; active = well fitted rising curve with a large enough effect; inconclusive = small, poorly fitted or top-dose-only effect; inactive = no such curve, though single readings can be large or run the other way;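 note: % of control where 0% means no effect; miR-21 action dims this reporter so a rising signal means less miR-21 action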
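Using DMEM plus 10% FBS, HeLa miR-21-FLuc cells are incubated with test compounds (final up to about 40uM) for 48 hours; firefly luciferase signal is then imaged following reagent-mediated lysis.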
An asterisk follows results filed as active; ? = inconclusive; · = no result given; & = joins results of further samples. Some of the compounds tested; the hit share may differ from the screen's.

Rango-impB inh | Rango release inh | GLA inh pH 4.5 | miR-21 reporter | SMILES
0.6% | 0% | -9 | 7% | COc1ccc(CC2(C)OC(c3ccc(C)c([N+](=O)[O-])c3)=NN2C(C)=O)cc1 (stereo not drawn)
? | -15% | 1 | -3% | COCCCn1c(C)nnc1SCC(=O)NCc1ccco1
? | -26% | -11&-12 | -9% | CCCCC1=CC2=C(c3ccco3)C(=O)C(C)(OC(=O)c3ccc(OC)cc3)C(=O)C2=CN1c1ccccc1 (stereo not drawn)
2.6% | 0% | 13 | -3% | CC1=C(C(=O)N2CCOCC2)C(c2ccc(Cl)cc2)NC(=S)N1 (stereo not drawn)
-1.1% | -14% | · | · | Cc1ccc(S(=O)(=O)N(C)c2ccc(OCC(=O)Nc3cc(C(=O)O)ccc3Cl)cc2)cc1
3.7% | 26% | · | · | CCOc1ccccc1NC(=O)COc1cccnc1[N+](=O)[O-]
0.1% | 25% | 2 | 3% | Cc1nn(-c2ccccc2)c(C)c1NC(=O)c1cccs1
? | -10% | 3 | -2% | Cc1cc(Nc2ccc(F)c(F)c2)nc(-c2ccccc2O)n1
-1.6% | 0% | · | -6% | FC(F)(F)c1nnc2n1N=C(c1ccccc1)CS2
-0.4% | -22% | · | · | Cc1ccc(NC(=O)C2=COCCO2)cc1S(=O)(=O)N1CCOCC1
-1.1% | 1% | -1 | 14% | S=C(Nc1ccc(Oc2ccccc2)cc1)NC1CCCCC1
-1.9% | -2% | · | · | O=C(COC(=O)c1cccnc1Cl)Nc1cc(S(=O)(=O)N2CCOCC2)ccc1Cl
1.0% | -10% | · | -35% | COc1ccc(C(=O)NCCCOC(C)C)cc1OC1CCN(C(C)=O)CC1
3.8% | 19% | · | · | CCN(CC)c1ccc(NC(=O)CN2C(=O)NC3(CCc4ccccc43)C2=O)cc1 (stereo not drawn)
2.8% | 14% | -4 | 5% | Cc1ccc(NC(=O)NC2CCCCC2)cc1S(=O)(=O)N1CCOCC1
? | ? | 3 | -33% | O=C(/C=C/c1ccc[nH]1)c1ccccc1
-0.2% | -8% | · | 6% | COc1cccc(C(=S)N2CCOCC2)c1OS(=O)(=O)c1ccc(Cl)cc1
0.1% | -26% | -24 | -1% | Cc1ncc([N+](=O)[O-])n1CC(=O)NC1CCCCCC1
-1.9% | -7% | 0 | ? | CC(C)C(=O)NC(c1ccc([N+](=O)[O-])cc1)c1c(O)ccc2ccccc12 (stereo not drawn)
-0.3% | 0% | 1 | -16% | CC(=O)Nc1ccc(-c2ccc(NC(C)=O)cc2)cc1

Eleven compounds already listed, arranged by molecular weight, rising:
Rango-impB inh | Rango release inh | GLA inh pH 4.5 | miR-21 reporter | SMILES
-0.3% | 0% | 1 | -16% | CC(=O)Nc1ccc(-c2ccc(NC(C)=O)cc2)cc1
-1.6% | 0% | · | -6% | FC(F)(F)c1nnc2n1N=C(c1ccccc1)CS2
0.1% | 25% | 2 | 3% | Cc1nn(-c2ccccc2)c(C)c1NC(=O)c1cccs1
? | -10% | 3 | -2% | Cc1cc(Nc2ccc(F)c(F)c2)nc(-c2ccccc2O)n1
-1.1% | 1% | -1 | 14% | S=C(Nc1ccc(Oc2ccccc2)cc1)NC1CCCCC1
-1.9% | -7% | 0 | ? | CC(C)C(=O)NC(c1ccc([N+](=O)[O-])cc1)c1c(O)ccc2ccccc12 (stereo not drawn)
-0.4% | -22% | · | · | Cc1ccc(NC(=O)C2=COCCO2)cc1S(=O)(=O)N1CCOCC1
2.8% | 14% | -4 | 5% | Cc1ccc(NC(=O)NC2CCCCC2)cc1S(=O)(=O)N1CCOCC1
3.8% | 19% | · | · | CCN(CC)c1ccc(NC(=O)CN2C(=O)NC3(CCc4ccccc43)C2=O)cc1 (stereo not drawn)
-0.2% | -8% | · | 6% | COc1cccc(C(=S)N2CCOCC2)c1OS(=O)(=O)c1ccc(Cl)cc1
-1.9% | -2% | · | · | O=C(COC(=O)c1cccnc1Cl)Nc1cc(S(=O)(=O)N2CCOCC2)ccc1Cl

(next part)
Rango-impB inh | Rango release inh | GLA inh pH 4.5 | miR-21 reporter | SMILES
-1.3% | 1% | 0 | -6% | COc1ccccc1-c1noc(-c2cc(OC)c(OC)c(OC)c2)n1
1.4% | 7% | -11 | 3% | COc1ccccc1CNC(=O)CSc1nc(-c2ccccc2)cn1N
0.4% | -7% | · | 1% | O=C(Nc1ccccn1)C1CCCN1S(=O)(=O)c1ccc(Cl)cc1 (stereo not drawn)
-1.6% | -1% | · | · | O=C(Nc1ncccc1O)c1cccc(S(=O)(=O)NCc2ccccc2)c1
3.4% | 1% | · | 4% | Cc1sc2nc(SCC(=O)Nc3ccccc3F)[nH]c(=O)c2c1C
-3.4% | 4% | 6 | -40% | CN1CCN(CC(=O)Nc2nc(-c3c[nH]c4ccccc34)cs2)CC1
4.9% | 10% | 4 | -7% | CC(=O)c1cccc(NC(=O)NCc2ccco2)c1
5.3% | 1% | -17 | -1% | Cc1ccc(N=Nc2c(N)nn3c(N)c(C#N)c(C)nc23)cc1
0.3% | 16% | · | · | O=C(OCc1nnc(-c2ccccc2)o1)c1ccc(Br)o1
3.0% | 23% | · | -1% | Cn1ncc([N+](=O)[O-])c1C(=O)Nc1cccc(Cl)c1
0.7% | -7% | -5 | -29% | COc1cccc(Cn2c(=O)ccc3ccccc32)c1
2.2% | -27% | · | -2% | COc1ccc(Cl)cc1S(=O)(=O)N(C)CC(=O)N1CCOCC1
2.3% | 4% | 4 | 7% | CCn1c(-c2cc(Br)cc(OC)c2O)nc2cc(S(=O)(=O)N(C)C)ccc21
-5.3% | -3% | -4 | -2% | CCOCCCNC(=O)c1ccc2c(=O)n(Cc3ccc4c(c3)OCO4)c(=S)[nH]c2c1
4.3% | -17% | 0 | -16% | CC1=C(C#N)C(=O)NC(=O)/C1=C\c1ccc(-c2ccc(C)cc2[N+](=O)[O-])o1
0.4% | -4% | -3 | ? | O=C(c1nnsc1S(=O)(=O)c1ccc(Cl)cc1)N1CCOCC1
1.9% | -24% | · | · | Cn1c(-c2ccc(F)c(F)c2)cc2onc(-c3ccccc3)c2c1=O
-0.6% | 1% | · | -5% | S=C(c1ccc(Br)cc1)N1CCCC1
-1.3% | 3% | -14 | 0% | Cc1ccccc1CSCC(=O)Nc1ccccc1-c1ccccc1
0.2% | -9% | -9 | -43% | CC(=O)N1CCc2cc(NC(=O)c3ccc(C)cc3)ccc21
2.4% | -12% | 0 | -1% | Cc1nc(CC(=O)O)c(-c2ccccc2)s1
-0.1% | 7% | -21 | -2% | CCC(Oc1ccccc1)C(=O)N(Cc1ccccc1)c1ccccn1 (stereo not drawn)
0.7% | -20% | 6 | -19% | Cc1cc(C(=O)N/N=C/c2cccs2)no1
-0.2% | -6% | 8 | -12% | Cc1ccc(C2CC(c3ccccc3OC(F)F)Nc3ncnn32)cc1 (stereo not drawn)
-4.3% | 20% | · | -1% | O=C(CSc1nnc(NC(=O)C2CC2)s1)NCc1ccccc1Cl
-1.5% | 8% | · | · | CN1CCC(N(C)S(=O)(=O)c2ccc(NC(=O)COc3cccc(C(F)(F)F)c3)cc2)CC1
-0.6% | 0% | · | -55% | c1ccc(-c2cn(CC3CCCCC3)nn2)cc1
10% | -4% | 1 | 0% | Cc1ccc(CNC(=O)C2CC(c3ccc(C(F)(F)F)cc3)=NO2)o1 (stereo not drawn)
? | -6% | 0 | 1% | CCC(Oc1ccccc1)C(=O)NCCOC (stereo not drawn)
2.7% | 19% | 3 | 0% | CCOC(=O)C1=C(C)Nc2nc3ccccc3n2C1c1ccccc1 (stereo not drawn)
0.3% | -7% | · | · | COc1cc(-c2nnc(NC(=O)CS(=O)(=O)c3ccc(C)cc3)o2)cc(OC)c1OC
-5.5% | 0% | 6 | -1% | CCCCN1C(=O)N(C)C2NC(=S)NC21 (stereo not drawn)
5.5% | -1% | 12 | 3% | Cc1n[nH]c(C)c1CCc1nc2c3ccccc3nc(SCC(N)=O)n2n1
-4.1% | 13% | 5 | -1% | Cn1c(=O)c2c(nc(N3CCN(c4ccccn4)CC3)n2Cc2ccc(Cl)cc2Cl)n(C)c1=O
-0.3% | -3% | -1 | -31% | O=C(N/N=C\c1cn(-c2ccccc2)nc1-c1ccccc1)c1ccc2c(c1)OCO2
1.4% | 0% | -2 | 29% | Cc1cccc(NCc2ccc(O)c3ncccc23)c1C
0.7% | 16% | · | -10% | CC(=O)N(C1=C(Cl)C(=O)c2ccccc2C1=O)c1ccc(C(=O)O)cc1
1.1% | 0% | 2 | -1% | Cc1cccc(/C=C2\CS/C(=C\c3cccc(C)c3)C2=O)c1
0.6% | 6% | · | -13%&-20% | O=c1[nH]c(C2CCCN(S(=O)(=O)c3ccccc3)C2)nc2c1nnn2Cc1ccccc1Br (stereo not drawn)
-0.2% | 16% | 11 | -15% | Cc1nc(SCC(=O)c2ccccc2)n[nH]1
0.1% | -10% | · | · | COC(=O)c1ccc(CSc2ccc(S(=O)(=O)N3CCCCC3)cn2)cc1
? | -4% | 13 | -64% | Cc1cccc(C)c1OCC(=O)Nc1cccc(C(=O)O)c1
0.4% | 5% | · | -2% | Cc1nn(-c2ccccc2)c2c1c(C)c(CCC(=O)NCC1CCCO1)c(=O)n2C (stereo not drawn)
0.6% | -1% | 8 | 4% | NC(=O)COC(=O)Cc1coc2cc3c(cc12)CCC3
0.1% | 0% | · | 6% | CCOc1cc(CN2CCN(C(=O)c3cccc4ccccc34)CC2)ccc1OC
1.5% | -3% | 2 | 2% | CC1CCCCC1NC(=O)COn1nnc2ccc(Cl)cc21 (stereo not drawn)
0.2% | 0% | -12 | -2% | CS(=O)(=O)N1CCN(c2ccccc2NC(=O)c2cccc3ccccc23)CC1
7.3% | 12% | 1 | 0% | O=C(Oc1ccccc1)c1cccc2cccnc12
-0.8% | -5% | · | -5% | CCn1c(=O)c(C(=O)NCCc2ccc(OC)c(OC)c2)c(O)c2ccccc21
-0.1% | 2% | 2 | -6% | Cc1ccc(C(C(=O)NC2CCCCC2)N(CC2CCCO2)C(=O)CNC(=O)c2ccco2)cc1 (stereo not drawn)

Remaining list, next part
Rango-impB inh | Rango release inh | GLA inh pH 4.5 | miR-21 reporter | SMILES
-2.9% | -3% | -2 | -68% | Cc1ccccc1/C=N/NC(=O)c1sccc1C
1.6% | -7% | · | · | O=C(NCCc1ccccc1)[C@@H]1CC=C[C@@H]2CCN(C3CCCCC3)C(=O)[C@@H]21
-0.1% | 1% | 8 | -7% | O=C(Nc1nnc(CC(=O)N2CCOCC2)s1)C1COc2ccccc2O1 (stereo not drawn)
1.9% | -12% | -5 | -6% | O=C(O)CNC(=O)C1COc2ccccc2O1 (stereo not drawn)
0.5% | -1% | -8 | -29% | CC(C)N1CCC2(CC1)Oc1ccc(Br)cc1C1CC(c3cccnc3)=NN12 (stereo not drawn)
7.6% | 15% | · | 2% | O=C(CSc1nnc(CNC(=O)c2ccccc2F)o1)Nc1cccc(C(F)(F)F)c1
-5.0% | -7% | · | 0% | CCn1cc(/C=C(\NC(=O)c2ccccc2Cl)C(=O)N2CCOCC2)c2ccccc21
0.6% | -5% | -4 | -52% | CC(=O)N1CCc2cc(S(=O)(=O)NCCC(=O)Nc3ccc4c(c3)OCCO4)ccc21
-2.8% | 1% | · | 2% | Cc1c(C)c2ccc(OC(C)C(=O)N[C@@H](Cc3c[nH]c4ccccc34)C(=O)O)c(C)c2oc1=O (stereo partly drawn)
? | ? | · | · | CN(C(=O)CN1CCCCCC1)c1c(N)n(Cc2ccccc2)c(=O)[nH]c1=O
-1.1% | 13% | 6 | -7% | COc1ccc(Cl)cc1C(=O)Nc1ccc(Br)c(C)n1
